Source: PubChem
UUG fidelity – modulators of yeast start codon fidelity, primary screen, whole organism, S. cerevisiae, single point, plate reader; S. cerevisiae UUG-firefly luciferase reporter, luminescence/redox ratio; activity score, % at 18.7 µM; 350,000 tested, 0.13% active; AID 602363, 2012;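 active means replicate mean at a twofold rise or more, about +100% in these data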;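 further: firefly luciferase made from a UUG start codon reports start codon fidelity; reporter light over untreated wells divided by growth signal over untreated wells; some hits fall short of that in this replicate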
Rce1 inh – yeast Rce1p protease inhibitors, primary screen, biochemical, fluorescence, cell-free homogeneous; yeast membranes, quenched prenylated peptide cleavage fluorescence; calls only; 290,000 tested, 0.27% active;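 active means fall in fluorescence gain of 50% or more versus controls, with final raw signal at or below 3038400; inconclusive means same 50% fall but final raw signal above 3038400; inactive means fall in fluorescence gain under 50%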;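 further: plate controls were neutral control wells for no effect and wells lacking membranes for full effect; tested at 10 µM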
Target sequence (Q03530 whole entry, looked up): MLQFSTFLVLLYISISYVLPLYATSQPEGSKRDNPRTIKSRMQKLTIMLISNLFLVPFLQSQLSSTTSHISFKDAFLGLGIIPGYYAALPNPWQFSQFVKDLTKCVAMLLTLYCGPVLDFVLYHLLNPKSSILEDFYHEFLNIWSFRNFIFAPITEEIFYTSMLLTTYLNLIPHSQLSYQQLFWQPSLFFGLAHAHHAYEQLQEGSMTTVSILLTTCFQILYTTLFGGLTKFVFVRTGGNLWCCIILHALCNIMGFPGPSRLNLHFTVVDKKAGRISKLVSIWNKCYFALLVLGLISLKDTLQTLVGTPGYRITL
PABP polyA inh – PABP poly(A) RNA binding inhibitors, primary screen, biochemical, fluorescence polarization, uHTS | inhibition, % at 35 µM | 290,000 tested, 1% active | AID 2014, 2009 | Polyadenylate-binding protein 1 (Homo sapiens), P11940;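 active means 50% or more with normal probe brightness, or confirmed in later tests; inconclusive means above 50% with abnormal brightness, or retests that disagree; inactive means below 50% or failed in later tests; about a fifth of its hits are not listed in these tables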;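 further: calls also rest on retests at 20 µM and on dose response follow-up; controls were probe without protein and protein plus probe with vehicle; some compounds called inactive have numbers as strong as hits; many hits fall short of the cut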
Target sequence (P11940 whole entry, looked up): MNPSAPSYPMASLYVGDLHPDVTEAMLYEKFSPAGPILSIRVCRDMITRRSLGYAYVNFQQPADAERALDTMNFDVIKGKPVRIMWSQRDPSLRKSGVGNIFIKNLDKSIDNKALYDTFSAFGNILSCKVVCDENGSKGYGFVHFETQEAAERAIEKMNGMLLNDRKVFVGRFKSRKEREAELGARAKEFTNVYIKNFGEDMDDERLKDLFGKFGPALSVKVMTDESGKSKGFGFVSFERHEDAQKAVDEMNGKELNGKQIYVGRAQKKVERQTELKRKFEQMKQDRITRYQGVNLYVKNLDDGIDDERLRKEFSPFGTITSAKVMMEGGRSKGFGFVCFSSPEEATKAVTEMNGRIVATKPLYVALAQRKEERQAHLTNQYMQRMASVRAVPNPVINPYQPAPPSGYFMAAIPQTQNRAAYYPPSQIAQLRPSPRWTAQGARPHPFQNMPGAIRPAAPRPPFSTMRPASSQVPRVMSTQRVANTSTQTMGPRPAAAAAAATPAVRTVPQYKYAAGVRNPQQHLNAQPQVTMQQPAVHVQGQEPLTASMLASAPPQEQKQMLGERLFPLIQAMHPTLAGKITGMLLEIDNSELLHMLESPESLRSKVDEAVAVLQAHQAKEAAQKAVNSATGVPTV
HIV Env fusion – inhibitors of HIV-1 Env-driven cell-cell fusion, primary screen, HeLa-JRFL effector, CEM21 target cells, luciferase; 360,000 tested, 1.1% active; inhibition, % at 12.3 µM; AID 651610, 2012;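 active means mean replicate inhibition score of at least 50 and every replicate individually at or above 50; inconclusive means only one of the two criteria met; inactive means mean below 50 and not all replicates reaching 50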;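 further: 0% = plate neutral controls and 100% = maraviroc near 300 nM; one replicate is shown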
eIF4H inh – human eIF4H binding inhibitors, primary screen, translation initiation inhibitor project, biochemical, uHTS, fluorescence polarization; Eukaryotic translation initiation factor 4H (Homo sapiens), Q15056; eIF4H fluorescence polarization binding assay; 290,000 tested, 0.94% active; AID 2012, 2009; inhibition, % at 35 µM;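 active means 50% or more with normal probe brightness, or confirmed in later tests; inconclusive means above 50% with abnormal brightness, or retests that disagree; inactive means below 50% or failed in later tests; about a fifth of its hits are not listed in these tables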;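 further: calls also rest on retests at 20 µM and on dose response follow-up; 0% = protein and probe with vehicle and 100% = probe without protein; strong numbers were not always called active; many hits fall short of the cut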
MT1-MMP act inh – blockers of MT1-MMP proenzyme processing, primary screen, HT1080 RFP-PRO-GFP cells, GFP/RFP fluorescence; Matrix metalloproteinase-14 (Homo sapiens), P50281; GFP/RFP ratio fluorescence, overnight; percent of plate control window, DMSO zero; AID 651647, 2012; GFP/RFP ratio change, % at 20 µM; 360,000 tested, 0.061% active;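 active means GFP/RFP ratio change of at least 30% with cell ATP level not reduced by more than half and red fluorescence within 50% of control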; further: strong numbers were not always called active
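system = RFP-PRO-GFP reporter HT1080 cells | dosing = 20 µM single dose, 1% DMSO | timing = overnight cell settling, then overnight compound exposure, 37 °C, 5% CO2 | read-out basis = GFP/RFP fluorescence ratio | controls = DMSO and RFP-L50D-GFP cell wells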
CSC inhib – cancer stem cell viability inhibitors, primary screen, luminescence; cancer stem cell-like cells viability; 300,000 tested, 1.1% active; inhibition, % at 7.5 µM; AID 2717, 2010;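 active means mean at 75% or more and at least half the replicates too; inconclusive means mean and replicates disagree; tested in HMLE shEcad cells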;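 further: 0% = median of negative and 100% = median of positive control wells; the first replicate is given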
eIF4H inh retest – further read-out of eIF4H inh, marked with its call; inhibition, %; compound at 20 µM; confirmation average;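 mean of two retest wells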
PABP polyA inh retest – second read-out of PABP polyA inh, no call of its own (marks repeat the call); inhibition, %; compound at 20 µM; confirmation repeats;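 mean of two retest wells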
MT1-MMP act inh RFP – also measured in MT1-MMP act inh; calls as there; RFP signal change, %; measured here: RFP expression control read;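 0 = vehicle wells; hits needed this value within 50% of zero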
* = called active by the depositor; i = inactive; u = inconclusive; x = no result given. This is a subset, so the mix of outcomes need not match the whole.

SMILES	UUG fidelity	Rce1 inh	PABP polyA inh	HIV Env fusion	eIF4H inh	MT1-MMP act inh	MT1-MMP act inh RFP	CSC inhib	others
O=C1c2cccnc2C(O)N1Cc1ccco1 (stereo not given)	-15	i	-2	x	-6	5	5	x
C=CCN1C(=O)/C(=C2/Sc3ccc(OC)cc3N2C)SC1=Nc1cccc(O)c1	x	i	85	5	108	-15	0	-1	eIF4H inh retest=-2;PABP polyA inh retest=11
O=C(NCc1ccccc1)c1cc(S(=O)(=O)N2CCC3(CC2)OCCO3)ccc1F	0	i	-3	3	0	0	1	6
C/C(CC(=O)Nc1ccc(N(C)C)cc1)=N\NC(=O)c1ccccn1	-36	i	0	x	20	1	8	0
Cc1ccc(C(=O)Nc2sc3c(c2C(=O)O)CCCCC3)o1	-16	i	6	x	-6	-5	-3	33
CCOC(=O)C1=C(C)N=C2SCCC(=O)N2C1c1cc(Br)ccc1OC (stereo not given)	x	i	x	x	x	0	-2	-8
O=C(Nc1ccccc1)Nc1ccc(S(=O)(=O)N2CCCCC2)cc1	-12	i	3	x	0	5	-5	3
COC(=O)C(CCSC)NC(=O)c1cc2c(n(-c3ccccc3)c1=O)CCCC2=O (stereo not given)	-4	i	8	19	-9	0	-1	1
CC(c1nnc(SCC(=O)Nc2ccc3[nH]c(=O)[nH]c3c2)n1Cc1ccccc1)N(C)C (stereo not given)	-22	i	1	37	-4	5	8	-11
N#CC1=C(c2ccc(-c3ccccc3)cc2)COC1=O	x	i	-10	-39	28	1	8	-17
CN(Cc1ccccc1)C(=S)Nc1cccnc1	x	i	u	0	1	0	1	-7
O=C(N/N=C/c1ccc(Cl)cc1)c1cc(-c2cccnc2)nc2ccccc12	-2	i	8	-69	-6	-7	-15	44
Nc1ncnc2c1ncn2[C@@H]1O[C@H](C(=O)N2CCN(c3ccc(Cl)cn3)CC2)[C@@H](O)[C@H]1O	-5	x	x	24	x	4	0	x
C=C1CCN([C@H](C(=O)NCc2ccc(Cl)cc2)C(C)C)S(=O)(=O)c2ccccc21	-17	x	-17	20	-6	0	-2	-2
COC(=O)CN(c1cccc(C)c1)S(=O)(=O)c1ccccc1	-19	i	2	-6	2	-6	2	34

Ordered by length of the SMILES (descending): part of the list above
SMILES	UUG fidelity	Rce1 inh	PABP polyA inh	HIV Env fusion	eIF4H inh	MT1-MMP act inh	MT1-MMP act inh RFP	CSC inhib	others
Nc1ncnc2c1ncn2[C@@H]1O[C@H](C(=O)N2CCN(c3ccc(Cl)cn3)CC2)[C@@H](O)[C@H]1O	-5	x	x	24	x	4	0	x
CC(c1nnc(SCC(=O)Nc2ccc3[nH]c(=O)[nH]c3c2)n1Cc1ccccc1)N(C)C (stereo not given)	-22	i	1	37	-4	5	8	-11
O=C(N/N=C/c1ccc(Cl)cc1)c1cc(-c2cccnc2)nc2ccccc12	-2	i	8	-69	-6	-7	-15	44
O=C(Nc1ccccc1)Nc1ccc(S(=O)(=O)N2CCCCC2)cc1	-12	i	3	x	0	5	-5	3
O=C1c2cccnc2C(O)N1Cc1ccco1 (stereo not given)	-15	i	-2	x	-6	5	5	x

Gathered by group, those above with a furan ring, fused or not.
SMILES	UUG fidelity	Rce1 inh	PABP polyA inh	HIV Env fusion	eIF4H inh	MT1-MMP act inh	MT1-MMP act inh RFP	CSC inhib	others
O=C1c2cccnc2C(O)N1Cc1ccco1 (stereo not given)	-15	i	-2	x	-6	5	5	x
Cc1ccc(C(=O)Nc2sc3c(c2C(=O)O)CCCCC3)o1	-16	i	6	x	-6	-5	-3	33

Later entries.
SMILES	UUG fidelity	Rce1 inh	PABP polyA inh	HIV Env fusion	eIF4H inh	MT1-MMP act inh	MT1-MMP act inh RFP	CSC inhib	others
Nc1ccc(C(=O)NCCCSc2ccccc2)cc1[N+](=O)[O-]	-3	i	5	-7	-12	5	-7	8
Cc1cc(C)c(NC(=O)COC(=O)C23CC4CC(CC(O)(C4)C2)C3)c(Cl)c1	14	x	x	-21	x	3	3	-10
CC(C)C[C@@H]1NC(=O)[C@H](Cc2ccc(O)cc2)NC(=O)[C@H](CCC(N)=O)NC(=O)c2cc([N+](=O)[O-])cc(I)c2NCC[C@@H](C(N)=O)NC1=O	x	i	8	x	7	x	x	-17
O=C1C2C3C=CC(C2C(=O)N1c1nccs1)C1C(=O)N(c2nccs2)C(=O)C31 (stereo not given)	-6	i	0	11	9	2	2	-6
O=C(/C=C/c1cccc([N+](=O)[O-])c1)c1ccc2c(c1)OCCO2	x	i	6	-6	-5	4	5	16
Cc1nnc(SCC(=O)N(CC(C)C)C2CCS(=O)(=O)C2)s1 (stereo not given)	-20	x	x	x	x	3	6	-24
NS(=O)(=O)c1ccc(NC(=S)Nc2ccc(Br)c(Cl)c2)cc1	10	i	0	-1	-11	-1	-2	-7
N#Cc1cn(Cc2cccc(Cl)c2)c2ccccc12	-15	i	-3	x	8	3	-1	u
CN(C(=O)c1cncc(Br)c1)C1C2CC3CC(C2)CC1C3 (stereo not given)	-3	i	12	34	-12	2	-2	-4
CCCCNC(=O)Nc1ccccc1Br	x	i	-1	x	6	-3	-4	-5
C=CCn1c(SCC(=O)Nc2sccc2C(N)=O)nc2ccccc2c1=O	-18	i	9	x	-7	1	-13	29
CC(C)(CNC(=O)c1cccc(S(=O)(=O)Nc2ccc(Br)cc2)c1)N1CCOCC1	x	i	x	1	x	-1	-9	-3
O=C(Nc1ccc2ncccc2c1)c1cc(Cl)ccc1Cl	x	i	-3	34	2	-1	-5	1
O=C(Nc1cccc2ccccc12)c1ccc([N+](=O)[O-])cc1	-7	i	10	-4	1	-1	-8	12
CCCS(=O)(=O)c1c(S(=O)(=O)CCC)c2c(C)cccn2c1C(=O)N/N=C/c1cc(O)cc(O)c1	-29	i	-1	-6	12	-1	-3	132*
NC(N)=Nc1nc(-c2ccccc2)c2ccccc2n1	-16	i	-10	-4	-2	-24	-11	17
O=C(Nc1ccc(S(=O)(=O)N2CCCCCC2)cc1)C1CCCO1 (stereo not given)	-7	x	-9	-49	-2	7	7	-10
COc1ccccc1C(=O)COC(=O)c1c(-c2ccccc2)noc1C	-19	i	x	22	x	-11	-4	12
CC(C)N(Cc1c(O)ccc2c(=O)c(-c3ccc(Cl)cc3)coc12)C(C)C	-10	i	-3	-5	1	-2	-11	14
Cc1ccc2nc(N/N=C/c3ccco3)cc(C)c2c1	-32	i	-4	-195	-2	1	-3	21
Cc1ccc(CNC(=O)CNC(=O)[C@@H]2Cc3ccccc3CN2)cc1	-13	i	2	-4	-2	2	5	-11
COC(=O)c1c(NC(=O)C2CCCCC2)sc2c1CC(C)(C)NC2(C)C	5	i	-22	-1	1	-4	-4	-8
Cn1c(SCC(=O)N/N=C/c2ccccn2)nnc1-c1ccccc1	-32	i	-6	-10	-8	0	2	-4
COc1cccc(NC(=O)C(=O)NCC2CCCN2S(=O)(=O)c2cccs2)c1 (stereo not given)	-2	x	x	-88	x	3	3	x
Nc1nnc(SCC(=O)Nc2ccc3c(c2)OCCO3)s1	-8	i	-1	-6	-9	3	3	x
Cc1ccc(N=CC2=C(O)CC(c3ccc(Cl)cc3)CC2=O)cc1 (stereo not given)	-4	i	12	x	-5	7	8	20
O=[N+]([O-])c1ccc(Cl)c2c1C1C=CCC1C(c1ccccn1)N2 (stereo not given)	x	i	52	11	104	3	1	3	eIF4H inh retest=11;PABP polyA inh retest=30
O=C(O)C(CCc1ccccc1)N1CCOCC1 (stereo not given)	-11	x	x	25	x	-5	7	x
Cc1ccc2nc(-c3ccc(F)cc3)c(Cc3cccc(Cl)c3)n2c1	-4	x	x	-24	x	-3	-9	x
CCN1C(=O)[C@H]2[C@@H](c3ccc(-c4cccc(Cl)c4)cc3)N[C@@](Cc3ccccc3)(C(=O)OC)[C@H]2C1=O	2	i	x	12	x	-6	-9	12
CCC(C)(C(=O)NC1CCCC1)N(C(=O)CNC(=O)c1ccccc1)c1c(C)n(C)n(-c2ccccc2)c1=O (stereo not given)	-7	i	-1	9	2	-1	2	-7
O=C1NC(c2ccc(Cl)cc2)=COc2ccccc21	-10	i	-1	-10	-6	4	3	5
CC(C)(C)OC(=O)NCCCCCNC(=O)c1[nH]cnc1C(=O)Nc1cccc(Cl)c1	-3	x	x	u	x	11	-5	11
O=C(CN1CCC(O)(c2ccccc2F)CC1)NCCc1c[nH]c2ccccc12	-18	i	-6	x	-3	4	3	1
Cc1cc(C(=O)O)ccc1NCc1cccnc1	-15	i	3	2	-9	2	4	-6
COCC1CCN(C(=O)c2oc3c(F)cccc3c2C)C1 (stereo not given)	-13	i	0	13	-7	-3	-2	11
O=C(O)c1ccc(NCc2nc3ccccc3n2Cc2ccccc2F)cc1	-21	i	-8	7	-8	-3	1	12
COc1cc(CNc2nc3ccccc3s2)cc(OC)c1OC	-6	i	2	1	8	12	-7	-13
COc1ccc2c(c1OC)C(=O)OC2Nc1ncc(Br)cc1Br (stereo not given)	-4	i	10	33	-2	1	2	-14
O=C1CCCc2ccccc2N1Cc1ccccc1Cl	-6	i	6	x	-18	-3	-5	-12
N#Cc1ccc2c(c1)nnn2-c1ccccc1	-16	i	x	34	x	2	1	-16
O=C1c2ccccc2C(=O)N1CCc1nc(-c2ccncc2)no1	-8	i	0	-33	1	8	3	-3
CCc1noc(C)c1C(=O)Nc1ccc(F)c(F)c1	-5	i	x	-13	x	1	3	-11
CC(=O)N1CCN(c2ccc(NC(=O)c3ccc4c(c3)OCCO4)cc2)CC1	x	x	4	x	-4	5	4	9
Cc1cc(C)cc(NC(=O)N(C)Cc2ccccc2)c1	-12	i	-6	2	-18	2	2	-14
Cc1cccnc1NC(=O)c1ccc2c(c1)OCCO2	x	i	x	-306	x	-2	0	-3
CC(=O)c1cccc(NC(=O)C2CC(=O)N(CCc3ccccc3)C2)c1 (stereo not given)	x	i	-6	11	-2	0	3	x
